# TRPML1 ag: qHTS for Agonists of the Human Mucolipin Transient Receptor Potential 1 (TRPML1); TRPML1-expressing cells, Ca2+ dye fluorescence, FDSS; host cell line not named in the record; reference of the full effect not given here; 410,000 tested, 0.12% active; Mucolipin-1 (Homo sapiens), Q9GZU1; activation, % (test concentration not listed); in the data active = activation above about 50%; inconclusive = about 30% to 50%; inactive = below about 30%; note: 0% is about no effect; the text of the record puts the active cut at 80%
# Target sequence (Q9GZU1 whole entry, looked up): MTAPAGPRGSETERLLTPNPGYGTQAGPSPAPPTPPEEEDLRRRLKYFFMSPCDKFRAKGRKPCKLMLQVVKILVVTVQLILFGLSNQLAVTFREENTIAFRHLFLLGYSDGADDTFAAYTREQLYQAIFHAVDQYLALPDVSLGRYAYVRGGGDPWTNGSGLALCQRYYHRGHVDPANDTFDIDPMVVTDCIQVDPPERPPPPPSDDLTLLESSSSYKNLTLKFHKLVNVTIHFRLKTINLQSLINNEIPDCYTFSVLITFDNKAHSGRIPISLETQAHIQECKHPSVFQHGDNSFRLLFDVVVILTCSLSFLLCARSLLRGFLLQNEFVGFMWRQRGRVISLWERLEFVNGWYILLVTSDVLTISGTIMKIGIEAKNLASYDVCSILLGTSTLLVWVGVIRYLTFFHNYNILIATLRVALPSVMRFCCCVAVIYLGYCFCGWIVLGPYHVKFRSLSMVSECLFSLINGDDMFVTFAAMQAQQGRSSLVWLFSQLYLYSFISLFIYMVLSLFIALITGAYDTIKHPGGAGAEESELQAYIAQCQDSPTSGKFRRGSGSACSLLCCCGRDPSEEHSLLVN
#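 Cells: TRPML1-DL, 1X Tet inducer, ~16 h at 37 degrees C/5% CO2. Dye: ABD Ca8 no-wash + quencher, 45-90 min RT. Read: 10 s baseline, compound add, 110 s agonist phase; 54-4 EC80 (4uM final), 110 s antagonist phase.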
# D2 PAM: Beta-Arrestin HTS for Positive Allosteric Modulators of the Human D2 Dopamine Receptor: Potentiators. D(2) dopamine receptor (Homo sapiens), P14416. DiscoveRx D2 beta-arrestin cells, luminescence, 90 min; 100% = 57 uM dopamine signal. potentiation, % (no concentration beside the values). 360,000 tested, 0.23% active; active = potentiation of 50% or more; inconclusive = 30% to 50%; inactive = 30% or less;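 note: compound concentration not given in the record; tested on top of an EC20 dose of dopamine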
# Target sequence (P14416 whole entry, looked up): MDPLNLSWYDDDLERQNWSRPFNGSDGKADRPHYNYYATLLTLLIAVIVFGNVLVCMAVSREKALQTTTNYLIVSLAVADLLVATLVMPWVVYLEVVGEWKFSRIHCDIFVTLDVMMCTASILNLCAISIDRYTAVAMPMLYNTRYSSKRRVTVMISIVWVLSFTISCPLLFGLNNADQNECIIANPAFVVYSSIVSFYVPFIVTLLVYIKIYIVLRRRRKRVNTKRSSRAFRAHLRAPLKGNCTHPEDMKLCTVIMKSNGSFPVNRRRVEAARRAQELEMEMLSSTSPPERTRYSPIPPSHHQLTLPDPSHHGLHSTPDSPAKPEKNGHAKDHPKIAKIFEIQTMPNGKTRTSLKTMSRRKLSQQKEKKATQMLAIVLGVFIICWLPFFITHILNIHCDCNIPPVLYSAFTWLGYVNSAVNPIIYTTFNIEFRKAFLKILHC
#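 D2 cells co-treated with compound plus 50 nM dopamine (EC20) for 90 min at 37 deg C to detect potentiation. Beta-arrestin recruitment was read as enzyme-fragment luminescence after 1 h at ambient temperature. Full response was set by 57 uM dopamine.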
# PINK1 modulator: A Quantitative High throughput Screen to Identify Chemical Modulators of PINK1 Expression; AID 624263, 2012; 410,000 tested, 0.2% active; PINK1 immunofluorescence, high-content cytometry, 24 h; Potency, µM (titrated, usually from 76.6 µM), for inactives: top-dose activation (PINK1 increase), hits mostly activators; active = well fitted activation curve with a large enough effect; inconclusive = small, poorly fitted or top-dose-only effect; inactive = flat fitted curve, though single readings scatter; cell line not stated here;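 note: potency is the fitted concentration of half-maximal effect; % of control where 0% means no effect; nearly all actives have a fitted effect of over 65% in size; a mitochondrial uncoupler was the plate control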
#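 Fluorescence from anti-PINK1 antibody, together with nuclear and cell stains, was scanned on a laser-scanning cytometer. Before staining, stable-line cells were incubated 24 hours with compounds at 5 concentrations; primary antibody 12 h at 10 degrees C.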
# TRPML1 blocker: qHTS for Inhibitors of the Human Mucolipin Transient Receptor Potential 1 (TRPML1); Mucolipin-1 (Homo sapiens), Q9GZU1; activity change, negative = inhibition, % (test concentration not listed); TRPML1-inducible cells, Ca2+ dye fluorescence, FDSS; active compounds read low; inhibition of EC80 agonist-evoked calcium signal; AID 624415, 2012; 390,000 tested, 0.02% active; in the data active means activity change below about -50%; inconclusive means about -30% to -50%; inactive means above about -30%;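 note: stimulus is agonist 54-4 at its EC80 concentration; % is set by controls: 0 for no effect and ±100 for the full control effect; compound concentration not given in the record; the text of the record puts the active cut at -80%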
#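 Tet-induced TRPML1-DL cells loaded with Ca8 no-wash calcium dye were read kinetically on FDSS. Compound addition was followed by EC80 agonist 54-4 (4 uM final); inhibition was read over 110 s.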
# Six1-Eya2 inh: qHTS Assay for Inhibitors of the Six1/Eya2 Interaction; 360,000 tested, 0.56% active; AlphaScreen GST-Six1/His-Eya2 binding, biochemical; active compounds read low; control for the full effect not named in the record; AID 651725, 2012; Homeobox protein SIX1 (Homo sapiens) + Protein phosphatase EYA2 (Homo sapiens), …; activity change, % (test concentration not listed); in the data active = activity change below about -65%; inconclusive = about -30% to -65%; inactive = above about -30%; note: % is set by controls: 0 for no effect and ±100 for the full control effect
#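 Homogeneous AlphaScreen proximity assay pairing GST-Six1 with His-tagged Eya2 (added as 5X mix: 250 nM and 500 nM) in 50 mM Tris pH 8.0, 300 mM NaCl, 1 mM TCEP. Glutathione donor and nickel acceptor beads; 1 h, 37 °C, dark.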
# D2 agonist: Beta-Arrestin HTS for Positive Allosteric Modulators of the Human D2 Dopamine Receptor: Agonists. DiscoveRx PathHunter D2 beta-arrestin, luminescence, 90 min; 100% = 57 uM dopamine signal. 360,000 tested, 0.084% active. D(2) dopamine receptor (Homo sapiens), P14416. AID 624465, 2012. activation, % (concentration not given with the values); in the data active = activation above about 40%; inconclusive = about 15% to 40%; inactive = below about 15%; note: compound concentration not given in the record; the text of the record calls up to 30% inactive
#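 DiscoveRx PathHunter D2 beta-arrestin cells (2,100/well) attached overnight, then compound-stimulated 90 min at 37 C in HBSS/10 mM HEPES/0.1% Tween-20 buffer; beta-galactosidase complementation read by luminescence after 1 h at ambient temperature. Dopamine 57 uM final (EC100) as control.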
# Starred values were filed as active, the others as inactive; ? = inconclusive; / = not tested or not shown; & = joins results of further samples; [ ] = dose if it differs, or a comment. An unsorted share of the library, and some 1% of all compounds hit somewhere here.
SMILES,TRPML1 ag,D2 PAM,PINK1 modulator,TRPML1 blocker,Six1-Eya2 inh,D2 agonist
Cc1ccc(-n2ncc(C(=O)Nc3ccc4c(c3)OCO4)c2C2CCN(C(=O)OC(C)(C)C)CC2)c(C)c1,17,/,-1.9%,-8,/,/
COc1ccc(Cl)cc1S(=O)(=O)N1CCN=C1C,0.3,-4,0.1%,?,34,-5.6
Cc1ccc(-c2nc(NCCN3CCOCC3)c3ccccc3n2)cc1,-0.2,-12,-1.7%[38.3 µM],11,-12,-1.4
CCNC(=O)c1c(NC(=O)COc2ccc(F)cc2)sc2c1CCCC2,-0.3,/,-1.0%,-5,/,/
O=C(Cc1ccc(S(=O)(=O)N2CCOCC2)s1)Nc1nc2c(s1)CCCC2,0.2,?,1.2%,5,-20,1.9
CC(C)OC(=O)CN1CCN(C2c3ccccc3-c3ccccc32)CC1,-0.8,-28,3.3%,3,-16,-2.7
Cc1ccc(C(CNS(=O)(=O)c2ccccc2)N2CCN(C)CC2)cc1 (stereo unspecified),0.4,-36,1.0%,-6,3,0.8
CC(C)(C)c1cc(NC(=O)COC(=O)c2ccccc2)n(-c2ccccc2)n1,0.0,-8,1.5%,18,8,-3.2
COc1ccc(C(=O)Nc2ccc3c(c2)nc2n3CCSC2)cc1,-0.8,-12,-4.0%,0,-10,-1.9
COc1ccc2nc(N3CCCCC3)c(/C=C3\SC(=S)NC3=O)cc2c1,12,-1,?,33,-9,-0.6
CN1CCCC(OC(=O)c2ccc(S(=O)(=O)N(C)C)cc2)C1 (stereo unspecified),1.7,-5,-0.3%,7,1,1.2
CCCN1CCC(NC(=O)Cc2ccc(C)cc2)CC1,-0.3,-5,-0.5%,1,5,-2.6
CCCN1C(=O)c2cc(C(=O)Nc3ccccc3CC)ccc2C1O (stereo unspecified),-0.2,-4,0.3%,-12,3,-2.4
COc1ccc(Cl)cc1C(=O)CSc1nnnn1C1CCCCC1,0.9,4,7.6%,67,8,-1.1
COc1ccc(NC(=O)CSc2cn(CCNC(=O)c3c(F)cccc3F)c3ccccc23)cc1,3.1,/,0.6%,0,/,/
COc1ccc(-c2csc(NC(=S)NC(=O)c3cc4ccccc4o3)n2)cc1Br,0.0,9,-1.3%,-3,2,-0.6
CN1CCN(CCCN(Cc2ccco2)C(=S)Nc2ccc(Cl)cc2)CC1,0.1,-24,0.3%,-7,-2,-4.9
CCC(=O)N1CCc2cc(Br)cc(S(=O)(=O)CCC(=O)NCCc3ccc(Cl)cc3)c21,-0.9,/,-1.1%,-18,/,/
COc1ccc(CCNC(=O)C(=O)NCC2OCCN2S(=O)(=O)c2ccc(Cl)cc2)cc1 (stereo unspecified),0.5,0,5.6%,55,5,-3.6
c1ccc(COc2ccc(OCCN3CCCC3)cc2)cc1,1.7,-20,1.0%,-11,1,-4.0
COc1cccc(CNC(=O)c2ccc(NC(=O)CC3SC(N4CCCC4)=NC3=O)cc2)c1 (stereo unspecified),0.1,-29,-1.0%,48,-12,1.3
COc1ccc(CCNC(=O)C2CCC(=O)N(C3CC3)C2)c(OC)c1 (stereo unspecified),0.7,-12,4.3%,-4,3,-0.8
CCOC(=O)c1ccccc1NC(=O)CSc1nc2c(sc(=S)n2CC)c(=O)[nH]1,-0.5,2,-1.4%,0,9,0.0
Cc1ccc(CSCc2ccc(C(=O)NCCCN3CCOCC3)o2)cc1,-0.6,-8,-0.6%,9,-5,-5.4
COc1cccc(NC(=O)CN(C)C(=O)C2=COCCO2)c1,1.7,-4,3.1%,-17,5,0.8
CC(=O)Nc1ccc2nc(NC(=O)CN3CCOCC3)sc2c1,0.3,-14,-0.6%,-20,-5,-3.5
COc1ccc(-n2c(CCC(=O)O)ccc2-c2ccccc2)cc1,2.3&-1.0,?,-1.9%&0.3%,9&3,-13,0.2
O=C(COC(=O)Cc1ccsc1)NC(c1ccccc1)c1ccccc1,4.1,-7,-0.7%,18,8,-1.0
CC1(C)Cc2nc3sc4c(=O)[nH]cnc4c3cc2CS1,-0.4,-9,0.2%,10,-13,-2.5
O=C(CSc1nnc(-c2ccc(O)cc2)o1)c1ccc(Br)cc1,5.8,/,1.9%,-12,/,/
CCOC(=O)CN/C=C(\C#N)c1ccccc1,2.0,-5,1.4%,9,2,-2.6
O=C(COc1ccc(Br)cc1)N1CCNC1=O,0.0,-9,0.8%,0,12,-2.1
Cc1ccc(-c2nnc(N(C)C(=O)c3cccnc3)s2)cn1,3.5,23,-0.8%,11,2,-1.3
COc1ccc(Cl)cc1NC(=O)c1c(NCc2cccs2)sc2c1CCCC2,-0.7,/,1.6%,-13,/,/
COc1cccc(NC(=O)c2cc(-c3ccccn3)nc3ccccc23)c1,3.4,-10,17%,30,-5,1.3
Cc1nc(NC(=O)C2CC2)sc1C(=O)Nc1ccccc1Cl,0.5,-23,4.5%,-4,12,-2.9
Cc1cc(C)cc(Oc2ccccc2C=O)c1,-0.8,10,8.1%,11,9,-2.8
CC1(C(=O)NS(=O)(=O)c2ccccc2)CCN1C(=O)COc1ccc(Cl)cc1 (stereo unspecified),-0.4,2,2.3%,/,2,3.6
O=C(CCCN1C(=O)/C(=C\c2cccs2)SC1=S)Nc1ccc(O)cc1C(=O)O,2.4,2,-2.0%,10,-10,-0.9
COc1ccc(C(CNC(=O)COc2ccccc2)N2CCOCC2)cc1 (stereo unspecified),-0.7,-19,0.7%,-4,1,-3.9
CCCN(CCC)C(=O)C(c1ccccc1)C1(O)CCCCC1 (stereo unspecified),3.0,-13,0.1%,3,-2,-3.3
COc1ccc(NC(=O)CS(=O)CC(=O)NC2CCCc3ccccc32)cc1 (stereo unspecified),0.2,1,-1.6%,1,6,-1.8
CCOC(=O)C1CCN(S(=O)(=O)c2ccc(Br)c(OCC)c2)CC1,6.1,6,6.3%,27,6,-2.8
COC(=O)c1ccccc1S(=O)(=O)N1CCC(C(=O)NC2CCCCC2C)CC1 (stereo unspecified),1.0,-2,1.1%,21,7,-1.9
CCCCC(CCC(=O)NNC(=O)Cc1ccccc1)C(=O)O (stereo unspecified),-0.1,-14,-0.8%,2,12,-0.4
Cc1cccc(NC(=O)C(=O)NCCc2csc(-c3ccc(C(F)(F)F)cc3)n2)c1C,2.2,/,-0.2%,-13,/,/
O=C(/C=C/c1ccc[nH]1)c1ccc(F)cc1,-0.7,-3,0.8%,-9,1,-3.9
CCCCNC(=O)Nc1cc(C)on1,-0.5,-1,?,-2,3,-3.6
Cc1ccc(NC(=O)COc2ccc(Cl)cc2Cl)cc1S(=O)(=O)N1CCOCC1,2.1,1,8.1%,-6,-1,-3.2
COc1cc(NC(=O)CN2C(=O)c3ccccc3S2(=O)=O)cc(OC)c1,-0.4,-4,0.1%,35,-4,8.4
Cc1ccccc1NC(=O)CN1C(=O)NC(C)(c2ccc3c(c2)OCO3)C1=O (stereo unspecified),1.7,-4,0.2%,27,8,0.5
COc1ccc(OC)c(NC(=O)COC(=O)CCc2ccc(S(=O)(=O)N3CCOCC3)cc2)c1,1.0,10,-1.7%,-3,-1,4.6
CCOC(=O)c1ccc(NC(=O)CSc2nnc(CNc3ccc(OC)cc3)n2C)cc1,0.4,1,/,-14,-1,0.5
Cc1c(NS(=O)(=O)c2cccc(C(=O)NCc3ccncc3)c2)c(=O)n(-c2ccccc2)n1C,1.6,6,-1.9%,18,1,-0.8
O=C(c1cccc([N+](=O)[O-])c1)c1ccccn1,-0.6,-14,-0.2%,5,1,-4.4
C/C=C/Cn1c(N2CCCCCC2)nc2c1c(=O)[nH]c(=O)n2C,2.1,-15,-1.6%,0,11,0.8
O=[N+]([O-])c1ccccc1/C=N/N1CCN(Cc2ccccc2)CC1,-1.5,-29,2.6%,-1,?,-0.6
O=C(Nc1ccc(N2CCOCC2)cc1)Nc1ccc2nc(-c3ccco3)c(-c3ccco3)nc2c1,7.3,-13,?,-1,?,-2.5
COc1ccc(C(=O)Nc2ccc(C(=O)OCc3cc(=O)n4nc(C(C)C)sc4n3)cc2)cc1,0.9,/,-0.1%,-15,/,/
COCCCN=C1NN=C(c2cc(C)n(Cc3ccco3)c2C)CS1,0.5,-1,9.5%,-6,-3,-1.9

# Part of the list above in order of number of heavy atoms, descending.
SMILES,TRPML1 ag,D2 PAM,PINK1 modulator,TRPML1 blocker,Six1-Eya2 inh,D2 agonist
Cc1ccccc1NC(=O)CN1C(=O)NC(C)(c2ccc3c(c2)OCO3)C1=O (stereo unspecified),1.7,-4,0.2%,27,8,0.5
COCCCN=C1NN=C(c2cc(C)n(Cc3ccco3)c2C)CS1,0.5,-1,9.5%,-6,-3,-1.9
O=C(/C=C/c1ccc[nH]1)c1ccc(F)cc1,-0.7,-3,0.8%,-9,1,-3.9

# Following part:
SMILES,TRPML1 ag,D2 PAM,PINK1 modulator,TRPML1 blocker,Six1-Eya2 inh,D2 agonist
COc1ccc(CC(=O)NCc2ccccc2F)cc1S(=O)(=O)N1CCOCC1,0.2,2,0.2%,-17,0,-3.8
Cc1ccc2oc(C(=O)Nc3ccc(S(=O)(=O)Nc4ncccn4)cc3)cc(=O)c2c1,-0.7,/,1.5%,-17,/,/
Cc1cc(C)cc(NCCC#N)c1,0.6,2,5.8%,-2,1,1.7
CC(C)(C)c1cc(C(=O)NNc2cccc(Cl)c2)n(Cc2ccccc2)n1,-0.5,-6,?,-3,8,-1.6
CCOC(=O)c1cc2cc([N+](=O)[O-])ccc2oc1=O,1.1,1,-2.0%,16,3,4.0
COc1ccc(C(=O)NCC(=O)OCC(=O)Nc2ncc(Cl)cc2Cl)cc1[N+](=O)[O-],0.1,-1,0.5%,-9,-7,1.3
Cc1nc(N)sc1-c1csc(Nc2ccc(Cl)cn2)n1,0.0,-1,2.8%[38.3 µM],81,?,-0.2
C=CCn1c(SC)nccc1=O,0.3,8,2.4%,-17,-2,9.2
Cc1oc(-c2cccc(Br)c2)nc1Cn1c(SCc2cccc(F)c2)nc2cccnc21,0.2,/,1.6%,15,/,/
O=C(/C=C/c1ccc(Cl)cc1)N1CCN(c2ccc(Cl)cc2[N+](=O)[O-])CC1,-0.7,1,-1.8%,11,?,0.2
c1ccc(N=P(c2nc3ccccc3o2)(N2CCOCC2)N2CCOCC2)cc1,-0.3,-12,1.4%[38.3 µM],14,0,-2.4
O=C(c1ccccc1Cl)N1CCCC(c2nc3c(nnn3Cc3ccccc3)c(=O)[nH]2)C1 (stereo unspecified),-0.4,-5,-4.0%[38.3 µM],-16,-8,2.3
